High-throughput results deposited in PubChem by National Center for Advancing Translational Sciences (NCATS).
AmpC nodet inh: inhibitors of E. coli AmpC beta-lactamase without detergent; hit rate 1.8% among 71,000; AID 585; AmpC nitrocefin hydrolysis, absorbance 480 nm, no detergent; potencies from a single point are estimates; P00811; Potency, µM (series often up to 28.7 µM), inactives show at the highest dose activity change, negative = inhibition; active = falling curve, for most hits resting on a single point; inconclusive = weak or doubtful change; inactive = flat or rising curve; also: % of control where 0% means no effect; about half of the hits show no inhibition at the top dose; a quarter of the inactives give rising signals
Target sequence (P00811 whole entry, looked up): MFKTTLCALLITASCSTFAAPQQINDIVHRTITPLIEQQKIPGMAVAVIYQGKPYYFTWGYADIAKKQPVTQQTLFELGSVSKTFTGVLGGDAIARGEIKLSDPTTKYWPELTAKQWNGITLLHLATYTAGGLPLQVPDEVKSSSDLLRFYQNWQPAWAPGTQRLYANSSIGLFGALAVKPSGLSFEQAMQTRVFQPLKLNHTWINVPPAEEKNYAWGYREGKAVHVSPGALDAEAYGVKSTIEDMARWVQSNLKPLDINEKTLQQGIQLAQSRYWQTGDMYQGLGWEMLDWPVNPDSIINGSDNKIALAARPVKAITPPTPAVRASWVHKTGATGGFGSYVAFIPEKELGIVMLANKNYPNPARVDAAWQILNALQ
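AmpC in 20 mM phosphate buffer pH 7.0 was preincubated 15 min at room temperature with compounds. Nitrocefin (800 uM stock) was then added and hydrolysis followed at 480 nm every 20 s for 4 min.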
* = called active by the depositor; [ ] = another dose, or the depositor's remark. Potency is read from the fitted curve at half-maximal effect.

The opening 7 entries (preview)
| SMILES | AmpC nodet inh |
| --- | --- |
| O=C1CCC(=O)c2oc3ccccc3c2N1 | -11.3% |
| O=C(CCn1nc(-c2ccc(Cl)cc2)ccc1=O)NCCCN1CCCCCC1 | 67.2% |
| Cc1occc1-c1nnc(SCC(=O)N2CCN(c3ccc(F)cc3)CC2)n1C | 61.5% |
| CSc1cccc(NC(=O)CN2C(=O)c3ccccc3S2(=O)=O)c1 | -12.5% |
| CCOC(=O)N1CCN(C(=O)CCCN2C(=O)CSc3nc(C)cc(C)c32)CC1 | 0.2% |
| Cc1ccc(C)c(NC(=O)CSc2nnc(Cc3cccn3C)n2-c2ccc(F)cc2)c1 | 122.3% |
| CCCCN(C)C(=O)C1CCN(CCCc2ccccc2)CC1 | 81.3% |

The list itself, repeating the preview:
| SMILES | AmpC nodet inh |
| --- | --- |
| O=C1CCC(=O)c2oc3ccccc3c2N1 | -11.3% |
| O=C(CCn1nc(-c2ccc(Cl)cc2)ccc1=O)NCCCN1CCCCCC1 | 67.2% |
| Cc1occc1-c1nnc(SCC(=O)N2CCN(c3ccc(F)cc3)CC2)n1C | 61.5% |
| CSc1cccc(NC(=O)CN2C(=O)c3ccccc3S2(=O)=O)c1 | -12.5% |
| CCOC(=O)N1CCN(C(=O)CCCN2C(=O)CSc3nc(C)cc(C)c32)CC1 | 0.2% |
| Cc1ccc(C)c(NC(=O)CSc2nnc(Cc3cccn3C)n2-c2ccc(F)cc2)c1 | 122.3% |
| CCCCN(C)C(=O)C1CCN(CCCc2ccccc2)CC1 | 81.3% |
| Cc1ccc(-c2nc3ccccc3n3nnnc23)cc1 | -14.1% |
| COc1ccc(OC)c(NC(=O)CSc2nnc(CNc3ccc(C)cc3C)o2)c1 | 52.3% |
| Cc1ccc2c(c1)N(CCC(=O)NCC1COc3ccccc3O1)C(=O)CO2 (stereo not drawn) | 53.2% |
| COc1ccc(-n2c(SCC(=O)Nc3cc(C)on3)nc3ccc(O)cc3c2=O)cc1OC | 66.7% |
| CCN(CC)C(=O)COc1cccc2ccccc12 | 9.8% |
| CCC1SC(=NC(=O)c2ccc(Cl)c(Cl)c2)NC1=O (stereo not drawn) | -4.4% |
| Cc1csc(N2CCc3ccccc32)n1 | 26.3% |
| CCC(C)Sc1nc2c(c(=O)[nH]c(=O)n2C)n1CC(O)COc1cccc2ccccc12 (stereo not drawn) | 66.9% |
| O=C(Cc1c(C(=O)O)[nH]c2ccc(Cl)cc12)Nc1ccc2c(c1)OCCO2 | -19.5% |
| O=C(NCc1ccccc1)NC1(C(=O)Nc2ccc3c(c2)OCCO3)CCCCC1 | 10.5% |
| CCCCOc1ccc(CC2C(=O)N(C)C(=O)N(C)C2=O)cc1 | 16.1% |
| Cc1sc2ncn(CC(=O)NCCCC(=O)N3CCN(c4ncccn4)CC3)c(=O)c2c1C | 50.7% |
| COc1cc2c(cc1O)C[C@H]1c3c(cc(OC)c(O)c3-2)CCN1C | 16.1% |
| Nc1cc(=O)[nH]c(SCc2cccc(Cl)c2)n1 | -11.5% |
| O=C(CN1C(=O)c2ccccc2C1=O)OCC(=O)N1CCc2ccccc2C1 | 33.6% |
| CC(C)c1cc(C(=O)Nc2ccc3c(c2)OCO3)no1 | -6.1% |
| COc1ccc(CC(=O)Nc2oc(-c3ccccc3)c(-c3ccccc3)c2C#N)cc1OC | 29.8% |
| CCOC(=O)CSc1nnc(-c2ccc(S(=O)(=O)N3CCC(C)CC3)cc2)o1 | 44.1% |
| Cc1nn(Cc2ccc(Cl)cc2Cl)c(C)c1NC(=O)c1nc2n(n1)C(C(F)F)CC(C)N2 (stereo not drawn) | 125.4% |
| CC(=O)c1ccc(N2CCN(C(=O)CCS(=O)(=O)c3ccc(C)cc3)CC2)cc1 | 69.5% |
| O=C(N1CCOCC1)N1CCN(c2nc(-c3ccccc3)cs2)CC1 | 111.1% |
| COc1ccc(N2C(=O)C3CCCN3C2c2ccc(C)cc2)cc1Cl (stereo not drawn) | 82.1% |
| CCOC(=O)C1CCN(C(=O)c2ccc3c(c2)OCO3)CC1 | 0.7% |
| Cc1ccc(-c2nc(N)n(S(C)(=O)=O)n2)cc1 | -7.9% |
| CC1CCCC(C)N1C(=O)CN1C(=O)C(C)(C)Oc2ccc(C(=O)NC3CCCCC3)cc21 (stereo not drawn) | 74.2% |
| CCN1CCCC1CNC(=O)c1cc2c(C)nc3ccccc3c2o1 (stereo not drawn) | -8.9% |
| CC1=NOC2(C1)/C(=N/O)CCC/C2=N\O (stereo not drawn) | -1.9% |
| C=CCCN1C[C@@H]2C[C@H](C1)c1cccc(=O)n1C2 | -1.2% |
| COc1ccc([N+](=O)[O-])cc1N | -8.8% |
| CC(=O)NC(C)c1nc2ccccc2n1Cc1ccccc1F (stereo not drawn) | 18.4% |
| O=C(N1CCN(c2ccccn2)CC1)N1c2ccccc2Sc2ccccc21 | 15.6% |
| O=C(CCCC(=O)N(CC(=O)NC1CCCCC1)CC1CCCO1)Nc1ccccn1 (stereo not drawn) | 19.2% |
| CC(C)NC(=O)c1ccc2c(c1)N(CC(=O)N1CCOCC1)C(=O)C(C)(C)O2 | -9.1% |
| COC(=O)c1cccc(NC(=O)CSc2nnc(COc3ccccc3)n2C)c1 | 34.5% |
| CCCCC(=O)Nc1nn(C)c2nc3c(C)cccc3cc12 | 1.9% |
| O=C(CN1CCN(C2CCCCC2)CC1)Nc1ccccc1N1CCCCC1 | 130.9% |
| Cc1ccc(N(C(C)C(=O)O)S(=O)(=O)c2c(C)[nH]c(=O)[nH]c2=O)cc1 (stereo not drawn) | 7.2% |
| CCCCc1ccc(C(=O)NC(C(=O)O)C(C)C)cc1 (stereo not drawn) | -2.0% |
| Cc1cc2cc(CN(CCCN3CCOCC3)C(=O)NC3CCCCC3)c(=O)[nH]c2cc1C | 117.0% |
| Cc1cc(C)n(-c2nc3c(c(=O)[nH]c(=O)n3C)n2CCc2ccccc2)n1 | 40.5% |
| Cc1cc(C)cc(OCC(=O)NCC2CCCO2)c1 (stereo not drawn) | 11.6% |
| Cc1cc(=O)n2nc(N3CCC(C(=O)NCCC4=CCCCC4)CC3)sc2n1 | 51.3% |
| COC(=O)c1cccc(NC(=O)C(C)N2C(=O)c3ccccc3C2=O)c1 (stereo not drawn) | 5.2% |
| COc1ccc(O)c(-c2[nH]ncc2C(=O)c2ccccc2)c1 | -7.8% |
| COc1cccc(OCC(O)CN2CC(C)CC(C)C2)c1 (stereo not drawn) | 7.5% |
| CCc1ccc(NC(=O)c2cc(C)on2)cc1 | -5.9% |
| CCn1c(SCC(=O)N2CCc3ccccc3C2)nc2c1c(=O)n(C)c(=O)n2C | 11.3% |
| CCOC(=O)c1oc2ccc(CNCCO)c(Cl)c2c1C | 21.5% |
| CCN(CC)S(=O)(=O)c1ccc(C2CNC(=O)C2)cc1 (stereo not drawn) | -5.7% |
| CC(C(=O)NCc1ccccc1)N(CCN1CCOCC1)C(=O)c1snc(C(N)=O)c1N (stereo not drawn) | -4.8% |
| Cc1nn(CCO)c(C)c1Oc1ccccc1O | 0.8% |
| COc1ccc(NC(=O)CSc2nnc(-c3ccccc3C)n2C)cc1 | 17.3% |
| Cc1oc(C2CC2)cc1C(=O)O | -3.3% |

Later entries:
| SMILES | AmpC nodet inh |
| --- | --- |
| Cc1cccc(NC2(C(F)(F)F)N=C3SCCN3C2=O)n1 (stereo not drawn) | 10.8% |
| Cc1ccc(NC(=O)/C(CN(C)C)=N\O)cc1 | -6.0% |
| CCCCCCn1c(N2CCN(c3ccccc3)CC2)nc2c1c(=O)[nH]c(=O)n2C | -4.6% |
| COc1ccc(CSc2nnc(C)n2N)cc1 | -5.3% |
| O=C1NCN(c2ccccc2)C12CCN(CCCOc1ccc(F)cc1)CC2 | 22.2% |
| COC(=O)C1C(C(C)C)N(c2ccccc2)OC1(C)O (stereo not drawn) | 9.7% |
| CCS(=O)(=O)N1CCC(C(=O)Nc2cccc(C(C)=O)c2)CC1 | 2.7% |
| COc1cccc(CC(=O)Nc2nccs2)c1 | -7.3% |
| O=C1CCC(=O)N1CCOP1(=O)COc2ccccc2OC1 | -2.3% |
| O=C(C1CCN(S(=O)(=O)c2ccccc2)CC1)N(CCc1ccccc1)Cc1ccco1 | 29.2% |
| Cc1cc(NC(=O)Cc2cccs2)no1 | 12.6µM* |
| CCOc1ccc(OCC)c(NC(=O)C2CCCN(S(=O)(=O)c3cnc[nH]3)C2)c1 (stereo not drawn) | 31.7% |
| COCCn1nnnc1C(c1ccccn1)N1CCN(c2cc(C)ccc2C)CC1 (stereo not drawn) | 109.1% |
| CC(=O)Nc1cc2c(nc1C)nc(C)n2Cc1ccc(Br)cc1 | -7.3% |
| CC(C)(C)c1nnc(NC(=O)C2CCN(c3ncccn3)CC2)s1 | 28.7% |
| CCc1sc(NC(=O)COC)nc1-c1ccccc1 | 6.8% |
| CC(C)Cn1c(SCC(=O)NC(=O)Nc2ccc3c(c2)OCCO3)nc2ccccc2c1=O | -2.5% |
| CCNC(=O)NC(=O)CSc1cccc(C(F)(F)F)c1 | -4.7% |
| COC(=O)c1ccc(C(=O)OC)c(NC(=O)CN2CCN(c3ccccc3OC)CC2)c1 | 118.2% |
| C=CCN(C(=O)CNC(=O)c1ccco1)C(C(=O)NC1CCCCC1)c1ccccc1 (stereo not drawn) | 28.2% |
| COc1ccc(C(=O)CSc2nnc(CNc3nc(-c4ccccc4)cs3)n2C)cc1 | 52.2% |
| c1cncc(-c2ccc3ncnc(NC4CCNCC4)c3c2)c1 | 5.6% |
| COc1ccc(Cl)cc1Nc1nc(C)cc(=O)[nH]1 | 6.5% |
| COC(=O)Nc1ccc(S(=O)(=O)N2CCN(c3ccc(F)cc3)CC2)cc1 | -3.5% |

The list goes on; it opens with the two that closed the last part.
| SMILES | AmpC nodet inh |
| --- | --- |
| COc1ccc(Cl)cc1Nc1nc(C)cc(=O)[nH]1 | 6.5% |
| COC(=O)Nc1ccc(S(=O)(=O)N2CCN(c3ccc(F)cc3)CC2)cc1 | -3.5% |
| Cc1ccc(C2(C)NC(=O)N(CC(=O)NC(=O)NCCC(C)C)C2=O)cc1 (stereo not drawn) | 63.0% |
| COc1ccc(NC(=O)CSc2nnc(C3CC3)n2N)cc1 | -10.1% |
| O=C(c1ccc(C#Cc2ccccc2)o1)N1CCN(c2ccccn2)CC1 | 77.4% |
| COC(=O)C1=CN(CCCN2CCCC2=O)C=C(C(=O)OC)C1c1cccs1 | 68.9% |
| O=C(OCCOc1ccccc1Cl)c1ccc(-n2cnnn2)cc1 | 25.4% |
| c1ccc2c(c1)C(=NCC1CCCO1)NC2=NCC1CCCO1 (stereo not drawn) | -1.0% |
| CC(C)(Oc1ccc(Cl)cc1)C(=O)NC1CCSC1=O (stereo not drawn) | -3.2% |
| Cc1cccc(N2C(=O)CC(N3CCN(Cc4ccc5c(c4)OCO5)CC3)C2=O)c1 (stereo not drawn) | 67.2% |
| Cc1ccc(S(=O)(=O)CCC(=O)OCC(=O)Nc2ncc(Cl)cc2Cl)cc1 | 2.8% |
| O=C(Nc1cccc(F)c1)N1CCC2(CC1)CCN(C(=O)c1cccc(F)c1)CC2 | 44.2% |
| O=c1[nH]c2ccc(S(=O)(=O)N3CCN(Cc4ccccc4)CC3)cc2[nH]c1=O | -0.9% |
| COC(=O)c1[nH]c2ccc(C)cc2c1NC(=O)CCN1CCN(C2CCCCC2)CC1 | 17.3% |
| CC[C@@H]1OC(=O)[C@H](C)[C@H](O[C@@H]2C[C@](C)(OC)[C@H](O)[C@H](C)O2)[C@H](C)[C@H](O[C@@H]2O[C@@H](C)C[C@@H](N(C)C)[C@@H]2O)[C@](C)(O)C[C@H](C)C(=NOCOCCOC)[C@H](C)[C@H](O)[C@]1(C)O | 88.8%[12.8 µM] |
| Oc1ccc(Cl)cc1Sc1cc(Cl)ccc1O | -12.5%[5.75 µM] |
| O=C(c1nc2nc(-c3ccccc3)cc(C(F)(F)F)n2n1)N1CCCCC1 | 16.1% |
| O=C(O)c1cc(S(=O)(=O)Nc2ccc3c(c2)OCCO3)c(Cl)cc1Cl | 4.0% |
| CCOC(=O)c1nn(-c2ccccc2)c(C(=O)OCC)c1N | 19.4% |
| O=C(Cn1c(=O)sc2ccccc21)NCCOc1ccccc1F | -1.5% |
| CCOC(=O)CSc1nnc(CSc2nc(C)cc(C)n2)n1Cc1ccco1 | 27.7% |
| CC1(C)CC(=O)C2=C(C1)OC(N)=C(C#N)C2C1CC=CCC1 (stereo not drawn) | -5.1% |
| COC(=O)c1cccc(N(C(=O)c2cnccn2)C(C(=O)NCc2ccccc2)c2ccco2)c1 (stereo not drawn) | 52.3% |
| Nc1ccc(O)c(-c2nc3ccccc3s2)c1 | 0.398µM* |
| CCOC(=O)N1CCN(c2nc(-c3ccc(OC)cc3)no2)CC1 | 47.4% |
| Cc1ccc2c(c1)C(c1ccccc1)NCC(=O)N2 (stereo not drawn) | 6.2% |
| C=CCCC(=O)Nc1ccc(COC(=O)N2CCOCC2)cc1 | -0.2% |
| O=C1c2ccccc2C(O)N1c1cccnc1 (stereo not drawn) | 3.98µM*[single pt active] |
| CCn1c2ccccc2c2nnc(SCc3cc(=O)n4ccsc4n3)nc21 | 43.6% |
| COc1ccc(C)cc1NC(=O)CSc1nnc(-c2ccc(C)cc2)o1 | 33.8% |
| CCN(CC)c1ccc(N2C(=O)c3ccccc3C2=O)cc1 | 0.3% |
| CC1CCCC(C)N1CCNC(=O)CCn1nc(-c2ccccc2)ccc1=O (stereo not drawn) | -5.8% |
| Cc1ccc(Cn2c(CN3CC(C)OC(C)C3)nc3c2c(=O)[nH]c(=O)n3C)cc1 (stereo not drawn) | 44.9% |
| CC1CCN(CCNC(=O)c2ccc3c(=O)n(CCc4ccccc4)c(=O)[nH]c3c2)CC1 | 19.8% |
| c1ccc2c(c1)ncn2Cc1nnc2sc(-c3ccncc3)nn12 | -11.1% |
| CO[Si](CCCNCCC[Si](OC)(OC)OC)(OC)OC | -17.0% |
| CCOc1ccccc1NC(=O)CN(c1ccc(C)cc1)S(=O)(=O)c1c(C)noc1C | 21.3% |
| Cn1c(CCNC(=O)c2ccco2)nc2cc(NC(=O)c3ccco3)ccc21 | 1.4% |

Only part of the results is shown; rates above refer to the full screens.
